RE007 growth inh: less growth of the S. pombe RE007 Vpr strain | S. pombe RE007 Vpr strain, BacTiter-Glo ATP luminescence, 24 h; control for the full effect not named in the record | Potency, µM (highest dose often 92.2 µM), without a hit: at the top dose activity change, negative = less growth | 360,000 tested, 0.21% active | AID 651644; active = well fitted falling curve with a large enough effect; inconclusive = small, poorly fitted or top-dose-only effect; inactive = no such curve, though single readings can be large or run the other way;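 further: on the % scale 0 is the no-effect control and ±100 the full control effect; nearly all actives have a fitted effect of over 50% in size; the assay follows cell death caused by Vpr and the record does not say whether a fall means rescue or toxicity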
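Fission yeast RE007 carrying one integrated HIV-1 vpr copy, seeded at OD 0.01 in PMG+AL medium with 23 nL pinned compound. Grown 24 h at 30 degrees; viability read by BacTiter-Glo luminescence after 5 min.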
SARS PLpro yeast: blocks SARS-CoV papain-like protease in a yeast assay; 330,000 tested, 0.19% active; Potency, µM (doses to about 32.9 µM), for the others: at the top dose activity, positive = growth rescue; S. cerevisiae expressing SARS-CoV PLpro, growth rescue; control for the full effect not named in the record; further: 0% is about no effect; nearly all actives have a fitted effect of over 55% in size; growth read by luminescence after 48 h
2A StopGo: FMDV 2A StopGo reporter, luciferase signal; human cells with a luciferase reporter of 2A StopGo recoding; control for the full effect not named in the record; Potency, µM (top dose mostly 57.9 µM), inactives show at the top dose signal change, negative = less light; 410,000 tested, 1.2% active; active = well fitted falling curve with a large enough effect; inconclusive = small, poorly fitted or top-dose-only effect; inactive = no such curve, though single readings can be large or run the other way; tested in HEK293T cells; further: on the % scale 0 is the no-effect control and ±100 the full control effect; nearly all actives have a fitted effect of over 45% in size; luciferase light after 4 h
Cruzain inh noDet: cruzain (T. cruzi) inhibition without detergent; 200,000 tested, 2.3% active; P25779; AID 1476; purified cruzain, Z-FR-AMC fluorescence, no detergent; Potency, µM, without a hit: max response, negative = inhibition, most hits filed as inhibitors; active means well fitted curve in the direction sought with a large enough effect; inconclusive means small, poorly fitted or top-dose-only effect, or another doubt; inactive means no such curve, though single readings can be large; an effect the other way counts as inactive or inconclusive;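 further: plate controls were enzyme without inhibitor for no effect and buffer without enzyme for full effect; nearly all actives have a fitted effect of over 40% in size; top concentration of the series not given in the record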
Target sequence (P25779 123-467 limits assumed): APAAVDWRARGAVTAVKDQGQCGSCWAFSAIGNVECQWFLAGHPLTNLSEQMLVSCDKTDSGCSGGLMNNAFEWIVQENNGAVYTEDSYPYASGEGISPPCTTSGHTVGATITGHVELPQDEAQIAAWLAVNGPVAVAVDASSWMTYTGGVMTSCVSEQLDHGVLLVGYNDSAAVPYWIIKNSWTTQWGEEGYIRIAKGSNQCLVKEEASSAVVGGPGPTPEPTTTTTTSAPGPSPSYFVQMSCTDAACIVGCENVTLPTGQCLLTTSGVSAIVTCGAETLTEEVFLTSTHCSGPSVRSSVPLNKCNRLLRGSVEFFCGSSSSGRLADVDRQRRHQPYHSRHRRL
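Detergent-free condition (0.00005% Triton X-100) in acetate buffer pH 5.5 with DTT. 1.5 nM enzyme and compound were pre-mixed 15 min, then 2 uM Z-FR-AMC substrate added; reaction progress from fluorescence change between first and third reads (60 s).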
NS1 inh: inhibitors of influenza NS1 protein function; S. cerevisiae slowed by influenza A NS1, growth recovery by OD600; Potency, µM (titrated, usually from 46.1 µM), without a hit: at the highest dose activity, positive = more growth; 270,000 tested, 0.4% active; AID 2326; further: actives are rising curves; nearly all actives have a fitted effect of over 50% in size
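OD600 was taken as the measure of yeast growth restored by compound in an NS1-expressing S. cerevisiae strain. Cells had been washed out of glucose medium and diluted 1:100 into galactose -URA medium, pH 6.0.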
Cruzain inh Det: cruzain (T. cruzi) inhibition with detergent. P25779. purified cruzain, Z-FR-AMC fluorescence, 0.01% Triton. Potency, µM, for the others: max response, negative = inhibition, hits mostly inhibitors. 200,000 tested, 0.43% active. AID 1478; active means well fitted curve in the direction sought with a large enough effect; inconclusive means small, poorly fitted or top-dose-only effect, or another doubt; inactive means no such curve, though single readings can be large; an effect the other way counts as inactive or inconclusive;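 further: plate controls were neutral wells for no effect and buffer without enzyme for full effect; nearly all actives have a fitted effect of over 40% in size; top concentration of the series not given in the record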
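Enzyme 1.5 nM, Z-FR-AMC 2 uM, NaOAc 100 mM pH 5.5, DTT 5 mM, Triton X-100 0.01%; 15 min RT compound preincubation; kinetic ex360/em450, 60 s delta.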
MARV entry inh: Marburg virus entry inhibition; Marburg virus pseudotyped entry inhibition, cell reporter; control for the full effect not named in the record; about a third of the inactives were read at about 46 µM; Potency, µM (doses to about 37.8 µM), without a hit: at the top dose activity change, negative = inhibition, hits mostly inhibitors; 300,000 tested, 1.8% active; active = well fitted inhibition curve with a large enough effect; inconclusive = small, poorly fitted or top-dose-only effect, or effect the other way; inactive = flat fitted curve, though single readings scatter; tested in HEK293 cells; about a fifth of its hits are not listed in these tables; further: on the % scale 0 is the no-effect control and ±100 the full control effect; luciferase read-out
LASV entry inh: blocks Lassa virus binding to or entry into cells; Lassa virus pseudotype entry inhibition, cell reporter; control for the full effect not named in the record; Potency, µM (top dose mostly 37.9 µM), for the others: top-dose activity change, negative = inhibition, actives largely listed as inhibitors; 300,000 tested, 1.2% active; AID 540256; active means well fitted inhibition curve with a large enough effect; inconclusive means small, poorly fitted or top-dose-only effect, or effect the other way; inactive means flat fitted curve, though single readings scatter; tested in HEK293 cells; further: on the % scale 0 is the no-effect control and ±100 the full control effect; nearly all actives have a fitted effect of over 50% in size; luciferase read-out
* = called active by the depositor; ? = inconclusive; nt = not tested or not shown; & = joins results of further samples; [ ] = remark or other dose. Unless noted, the call rests on the fitted dose curve; in most records, active means well fitted rising curve with a large enough effect; inconclusive means small, poorly fitted or top-dose-only effect; inactive means no such curve, though single readings can be large or run the other way. Potency means the concentration at half of the fitted maximal effect.

SMILES	RE007 growth inh	SARS PLpro yeast	2A StopGo	Cruzain inh noDet	NS1 inh	Cruzain inh Det	MARV entry inh	LASV entry inh
Cc1cccc(NC(=O)c2cccc(C(=O)Nc3cccc(C)c3C)n2)c1C	-5%	-5%	-7%	nt	8%	nt	-4%	18%
CCOC(=O)c1cccc(-n2c(-c3ccc(OC)cc3)nc3nc4ccccc4nc32)c1	nt	3%	nt	?	-15%	-4.5%	nt	nt
CCOC(=O)c1nnn(-c2nonc2N)c1CN1CCCCCC1	-2%	-6%	8%	2%	4%	4.5%	23%	2%
Cc1cc(C)c(C#N)c(SCc2[nH]nc3c2C(c2ccc(F)cc2)C(C#N)=C(N)O3)n1 (stereo not given)	-5%	9%	-8%	-26%	7%	-14%	-2%	-8%
CCC(=O)c1ccc(N2CCN(C(=O)c3cccs3)CC2)c(F)c1	?	-12%	1%	nt	-40%	nt	nt	nt
O=C(NCC1CCCCC1)c1ccc(Cl)nc1	17%	-6%	6%	nt	-12%	nt	?	15%[46.1 µM]
O/N=C/c1ccc2cccc(OCc3ccccc3)c2n1	-2%	-5%	-23%	nt	-6%	nt	nt	nt
Cc1ccc(/C=N/NC(=O)c2ccc(-n3cccc3)cc2)o1	-1%	-3%	11%	nt	8%	nt	5%[46.1 µM]	11%[46.1 µM]
Cc1ccc(-n2ncc3c(=O)n(CC#N)cnc32)cc1C	16%	-4%	46%[activator]	-5%	-1%	0.8%	21%	20%
COC(=O)c1ccccc1NC(=O)Cn1c(=O)oc2ccc(Cl)cc21	8%	3%	-28%	2%	-46%	2.2%	-12%	0%
Cc1cc(C)c2c(N)c(C(=O)NC3CCCC3)sc2n1	3%	-4%	16%	nt	-4%	nt	10%[46.1 µM]	-27%
CN(CC(=O)NCCc1ccccn1)S(=O)(=O)c1ccc(Cl)cc1	3%	0%	19%	nt	nt	nt	28%[46.1 µM]	2%
Cc1ccc(S(=O)(=O)Nc2c(C)nn(C)c2C)c(C)c1	-1%	3%	-23%	nt	nt	nt	0%[46.1 µM]	-21%
O=C(Nc1ncc(Cc2ccccc2Cl)s1)c1ccc([N+](=O)[O-])cc1	1%	5%	?	?	6%	-1.6%	-6%	-12%
O=C1NCC2=C1C(c1ccccc1)Nc1ccccc1N2 (stereo not given)	0%	-3%	nt	-15%	?	-2.7%	-5%	10%
Cc1csc(SCC(=O)NCCc2ccc(Cl)cc2)n1	-3%	8%	-26%	5%	1%	0.4%	-2%	16%
COCCn1nnnc1C(c1ccc(OC)cc1)N1CCC(C)CC1 (stereo not given)	-3%	11%	2%	3%	-3%	1.3%	3%[46.1 µM]	1%
COc1ccc(N2CCN(C(=O)COC(=O)c3cnccn3)CC2)cc1	-5%	-1%	-10%	nt	nt	nt	13%	9%
O=C(NN1C(=O)C2C3C=CC(C4CC34)C2C1=O)c1cccc(Cl)c1 (stereo not given)	-11%	0%	14%	-10%	1%	-0.8%	16%	15%
CC(C)CCNc1nc(N)c([N+](=O)[O-])c(NCCO)n1	18%	0%	8%	nt	-5%	nt	-4%[46.1 µM]	4%
O=C(Nn1c(C2CCCCC2)nc2ccccc2c1=O)c1ccc([N+](=O)[O-])cc1Cl	-5%	-17%	-24%	-8%	5%	-1.2%	-6%[46.1 µM]	-2%
COc1cc(/C=N/NC(=O)Cc2csc(N3CCOCC3)n2)cc(OC)c1O	-5%	1%	19%	nt	nt	nt	0%	-6%
O=C(CCOc1ccccc1)Nc1ccc([N+](=O)[O-])cc1	5%	-9%	33%[activator]	nt	nt	nt	13%[46.1 µM]	0%[46.1 µM]
O=C(Cc1ccc(F)cc1)N1CCC(c2nc3c(nnn3Cc3ccc(Cl)cc3)c(=O)[nH]2)CC1	nt	nt	-25%	?	nt	-7.5%	3%[46.1 µM]	-17%[46.1 µM]
CCNc1nc(NC(C)C)nc(SCCOC(=O)c2ccccc2)n1	-7%	-25%	?	8%	-42%	-5.1%	?	-17%
O=C1C(=Cc2ccco2)C(=O)c2ccccc21	-8%	-20%	29%	-5%	9%	-4.5%	?	2%
CCOC(=O)c1cnc2nc(C)[nH]n2c1=O	13%	1%	-22%	-1%	6%	4.8%	33%	1%
CCc1nn2c(=O)cc(COC(=O)c3cccc(NC(=O)COc4ccccc4F)c3)nc2s1	nt	nt	25%	15%	nt	-1.1%	nt	?
CCOC(=O)c1c(C)[nH]c(CCC(=O)NC(C)c2ccccc2)c1C (stereo not given)	nt	nt	-5%	4%	nt	1.4%	nt	-12%[46.1 µM]
CC(=O)c1ccc(OCc2cc(C(=O)NC(C)CCn3cccn3)no2)cc1 (stereo not given)	-8%	-2%	39%[activator]	nt	-7%	nt	1%	3%
CCn1c(SCc2ccccc2)nnc1C1CCN(S(=O)(=O)c2ccc(OC)cc2)CC1	-14%	2%	-23%	14%	-14%	5.8%	?	-24%
COc1ccc(N(CC(=O)N2CCN(Cc3ccc4c(c3)OCO4)CC2)S(C)(=O)=O)cc1OC	1%	-28%	?	-8%	-5%	-1.0%	0%&0%	-2%
O=C(NCCCNC(=O)c1ccccn1)c1cccc(F)c1	1%	-1%	-5%	nt	-11%	nt	-3%[46.1 µM]	0%[46.1 µM]
CC(C)Oc1ccc(C(CC(=O)N(C)CCC#N)c2ccc(F)cc2)cc1 (stereo not given)	-12%	7%	-15%	?	0%	1.0%	8%	-16%
CCOc1ccc(C2C=C(c3cccc(OC)c3)Nc3nnnn32)cc1 (stereo not given)	nt	nt	5%	3%	nt	-3.7%	3%[46.1 µM]	-21%[46.1 µM]
CCCn1c(N)c(N(CCOC)C(=O)CSCC(=O)Nc2ccc(OC)cc2)c(=O)[nH]c1=O	-11%	0%	-6%	nt	nt	nt	0%	17%
CCOC(=O)c1ccc(NC(=O)N2CCc3ccccc32)cc1	-23%	-3%	32%[activator]	?	-5%	2.0%	?	-21%
CCS(=O)(=O)c1ncc(Cl)c(C(=O)Nc2ccc(S(=O)(=O)N3CCC(C)CC3)cc2)n1	2%	-26%	14µM*	nt	1%	nt	?	?
CCn1nnnc1SCC(=O)NCc1cccs1	17%	8%	6%	-2%	7%	1.1%	-2%	22%
CCCn1c(N)c(C(=O)CSc2ncnc3sccc23)c(=O)n(C)c1=O	-3%	4%	-30%	nt	nt	nt	0%	16%
N#CC12C(=O)NC(=O)C1(C#N)C21CCCC1 (stereo not given)	-2%	nt	-16%	nt	nt	nt	?	8%
O=C(Nc1ccc(C(=O)O)cc1)/C(=C\c1ccc([N+](=O)[O-])cc1)NC(=O)c1ccc(Br)cc1	-1%	-1%	-3%	nt	nt	nt	0%[46.1 µM]	5%[46.1 µM]
COC(=O)c1c(NC(=O)COc2ccc(C(C)C)cc2)sc2c1CCCC2	nt	nt	-25%	21%	nt	-2.5%	nt	13%[46.1 µM]
COc1ccc2cc(-c3nnc(Nc4ccccc4)s3)c(=O)oc2c1	nt	nt	7%	-8%	nt	0.8%	nt	7%[46.1 µM]
O=C(OCC(=O)N1CCOCC1)c1cccc(S(=O)(=O)N2CCCc3ccccc32)c1	6%	-1%	-1%	nt	-1%	nt	nt	nt
CCC(=O)Nc1cccc(NC(=O)CN2CCN(c3ccccc3OC)CC2)c1	0%	-3%	-20%	2%	-4%	2.7%	8%	-25%
COc1cccc(CN(C)C(=O)CCN(c2ccccc2)S(=O)(=O)c2ccc(C)cc2)c1OC	5%	-2%	-28%	nt	nt	nt	?	?
COc1ccc(C)cc1NC(=O)c1cc(S(=O)(=O)N2CCC(C)CC2)cn1C	nt	nt	-17%	10%	nt	-2.1%	nt	26%[46.1 µM]
COc1ccc(NCC(=O)N/N=C2\CCCC(C)C2)cc1 (stereo not given)	7%	-6%	-12%	-4%	5%	-1.2%	14%	?
Cc1ccc(NC(=O)Cn2cc(C(=O)c3ccco3)c3ccccc32)cc1C	nt	nt	-16%	4%	nt	-10%	?	?
COc1ccc(OC)c(S(=O)(=O)NCC(c2ccco2)N2CCc3ccccc3C2)c1 (stereo not given)	-14%	-8%	64%[activator]	nt	nt	nt	-8%	4%
COc1ccc(CCN2C(=O)c3[nH]nc(-c4ccccc4O)c3C2c2ccccc2)cc1OC (stereo not given)	2%	3%	?	-7%	-19%	-3.0%	?	18µM*
O=C(CCc1nnc2ccc(N3CCOCC3)nn12)Nc1ccc(F)cc1F	0%	?	-11%	nt	-8%	nt	nt	nt
CC(=O)Nc1ncnc2c1c(-c1ccc(Cl)cc1)nn2C(C)(C)C	-11%	-2%	-18%	nt	-36%	nt	nt	nt
CCc1nnc(NC(=O)CCC(=O)N2CCN(S(=O)(=O)c3cc(Cl)ccc3OC)CC2)s1	-9%	3%	3%	nt	-8%	nt	-19%[46.1 µM]	2%[46.1 µM]
O=C(CCCN1CCOC(c2ccccc2)C1)c1ccc(F)cc1 (stereo not given)	6%	6%	?	nt	-17%	nt	nt	nt
Cc1cc(C)c(C(=O)OCC(=O)Nc2cccc(S(=O)(=O)N3CCCCC3)c2)c(C)c1	0%	-4%	-9%	nt	nt	nt	?	-24%
CCCS(=O)(=O)N1CCN(Cc2c[nH]c3ccccc23)CC1	-2%	5%	-18%	nt	5%	nt	0%[46.1 µM]	18%[46.1 µM]
Cc1ccc(O)c(NC(=O)CCS(=O)(=O)c2nc(-c3cccs3)cc(C(F)(F)F)n2)c1	nt	nt	?	6%	nt	-11%	-23%[46.1 µM]	?
O=C(Nc1ccc(Cl)c(C(F)(F)F)c1)c1ccc2c(c1)CCN2S(=O)(=O)c1ccccc1	nt	nt	-19%	25µM*	nt	-0.2%	?	?
Other records
SMILES	RE007 growth inh	SARS PLpro yeast	2A StopGo	Cruzain inh noDet	NS1 inh	Cruzain inh Det	MARV entry inh	LASV entry inh
O=C(NCc1cccc(Cl)c1)c1cccnc1	7%	-3%	-21%	0%	-9%	3.7%	-4%	-13%
O=C(C1=C[C@H](c2coc3ccccc3c2=O)C[C@H](OCc2ccc(CO)cc2)O1)N1CCN(Cc2ccc3c(c2)OCO3)CC1	6%	-3%	-11%	nt	4%	nt	nt	nt
COCC(C)NCC(=O)NC(C)CCc1ccccc1 (stereo not given)	-2%	-23%	-12%	10%	8%	0.9%	26%	0%
O=S(=O)(Nc1ccc(-c2cn3ccsc3n2)cc1)c1ccc2c(c1)OCCO2	11%	12%	71%[activator]	?	2%	0.1%	-5%	-1%
CC(C)n1nnnc1SCC(=O)Nc1cccc(F)c1	2%	3%	35%[activator]	nt	-8%	nt	?	26%[46.1 µM]

Assay outcomes from PubChem BioAssay.
